Mtb growth = Mycobacterium tuberculosis H37Rv growth inhibition, putative kinase inhibitor library, confirmatory dose response (AID 2842). M. tuberculosis H37Rv growth inhibition; higher % means a stronger effect; some inactives read as strong as hits. 5.2% of 24,000 active. inhibition, % at 10 µg/mL, or IC90 in µg/mL where a hit was titrated;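 active = confirmed in a dose series; about a fifth of its hits are not listed in these tables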;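 note: bacteria incubated one week before Alamar blue readout; 0% = bacteria only wells and 100% = bacteria with high antibiotic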
* hit, by the source's call.

Start of the data: the first 4 records as a preview:
SMILES	Mtb growth
O=C(C1=C(O)C(=O)N(Cc2cccnc2)C1c1cccc(Br)c1)c1cccs1 (configuration not stated)	-16.6%
Cc1ccc(C(=O)Nc2nnc(C3COc4ccccc4O3)o2)cc1 (configuration not stated)	84.9%
Cn1c(=O)c2c(SCC(=O)N3CCc4ccccc43)nc(-c3cccs3)nc2n(C)c1=O	-3.8%
Cc1csc(NC(=O)CSc2ccc3nnc(-c4ccc(F)cc4)n3n2)n1	1.0%

The whole of this part (from the top)
SMILES	Mtb growth
O=C(C1=C(O)C(=O)N(Cc2cccnc2)C1c1cccc(Br)c1)c1cccs1 (configuration not stated)	-16.6%
Cc1ccc(C(=O)Nc2nnc(C3COc4ccccc4O3)o2)cc1 (configuration not stated)	84.9%
Cn1c(=O)c2c(SCC(=O)N3CCc4ccccc43)nc(-c3cccs3)nc2n(C)c1=O	-3.8%
Cc1csc(NC(=O)CSc2ccc3nnc(-c4ccc(F)cc4)n3n2)n1	1.0%
CCS(=O)(=O)Nc1cccc(C(=O)CC2(O)C(=O)Nc3ccccc32)c1 (configuration not stated)	3.2%
CCn1cc(C(=O)Nc2ccc(OC)c(OC)c2)c2nn(-c3ccccc3)c(=O)c-2c1	6.9%
COc1ccc(-c2cccc(NS(=O)(=O)c3cccc([N+](=O)[O-])c3)c2)nn1	3.0%
Cc1cn2c3c(=O)n(CCCO)c(=O)n(C)c3nc2n1C(C)C	-3.6%
O=C(c1ccccc1)c1cn(Cc2cccc(F)c2)c2ccc(F)cc2c1=O	5.2%
Cc1ccc(C)c(NC(=O)CSc2nc3c(c(=O)n2Cc2ccccc2)SC(C)C3)c1 (configuration not stated)	55.8%
COc1ccc(-c2nnc(NC(=O)Cc3cccs3)s2)c(OC)c1	-9.5%
CCOc1ccc(OCC(=O)Oc2coc(CSc3ncccn3)cc2=O)cc1	-6.7%
COc1cc(N=Cc2c(O)c3ccccc3oc2=O)cc(OC)c1	-4.0%
CCCCSc1nc2c(c(=O)[nH]1)C(c1cccnc1)C1=C(CC(C)(C)CC1=O)N2 (configuration not stated)	4.9%
CCCc1nc(SCC(=O)Nc2ccc3c(c2)OCCO3)c2c(=O)n(C)c(=O)n(C)c2n1	7.0%
O=C(CSc1ncnc2c1cnn2-c1cccc(Cl)c1)NCc1ccc2c(c1)OCO2	-13.1%
COc1ccc(Nc2nc(Nc3ccc(C)c(Cl)c3)c3nccnc3n2)cc1	8.6%
Cc1ccc(CNC(=O)CSc2nnc3ccc(-c4ccccn4)nn23)cc1	-9.4%
Nc1ncc2c(n1)-c1ccccc1OC2O (configuration not stated)	3.2%
O=C(Nc1nc2ccc3ccccc3c2s1)c1ccc(S(=O)(=O)N2CCc3ccccc32)cc1	12.3%
CC(=O)c1sc(NC(=O)c2ccccc2Cl)nc1C	7.5%
CCOC(=O)c1nn(-c2ccc(F)cc2)c(=O)c2c(NC(=O)CCC3CCCC3)scc12	-0.6%
O=C(CCN1CCN(C(c2ccccc2)c2ccccc2)CC1)N/N=C/c1cccnc1	-16.6%
C=CCOC(=O)C1=C(C)NC(SCC(N)=O)=C(C#N)C1c1cccs1 (configuration not stated)	2.9%
CC1Cc2nc(SCC(=O)Nc3cccc(Cl)c3)n(C)c(=O)c2S1 (configuration not stated)	-1.8%
CC(C)c1nnc(NC(=O)c2c(F)cccc2Cl)s1	-3.5%
CC(C)N1C(=O)CC(Sc2ncccc2C(=O)O)C1=O (configuration not stated)	-17.1%
COC(=O)c1sc2ccccc2c1NC(=O)c1cc(Cl)ccc1[N+](=O)[O-]	-2.5%
COc1ccc(OCC(O)Cn2c(N3CCCCCC3)nc3c2c(=O)[nH]c(=O)n3C)cc1 (configuration not stated)	-12.1%
Cc1ccc2cc(CCNC(=O)c3ccccc3F)c(=O)[nH]c2c1C	1.5%
Cc1cc(C)c(C#N)c(SCC(=O)Nc2cccc3cccnc23)n1	-7.1%
CCCCn1c(=O)c2c(nc3n2CC(C)=NN3CC(N)=O)n(C)c1=O	-7.1%
CCOC(=O)c1nn(-c2ccc(Cl)cc2)c(=O)c2c(NC(=O)COc3ccc(Cl)cc3)scc12	-3.4%
O=C1/C(=C\c2ccc(-c3ccc([N+](=O)[O-])cc3Cl)o2)SC(=S)N1CCS(=O)(=O)O	-10.9%
O=C(CCOc1ccccc1)Nc1nc2c(ccc3ccccc32)s1	5.8%
COc1ccc(Cl)cc1NC(=O)CSc1nnc(CCC(=O)O)c(=O)n1N	-10.7%
COc1cccc(NC(=O)CSc2nc(N)c(NC(=O)c3ccc(OC)c(OC)c3)c(=O)[nH]2)c1	4.4%
Cc1nnc(SC/C=C/c2ccccc2)n(N)c1=O	8.3%
COc1cc(C(=O)Oc2coc(CSc3nc(C)cc(C)n3)cc2=O)c([N+](=O)[O-])cc1OC	-6.0%
Cc1cccc(N2CCN(c3ncnc(N)c3[N+](=O)[O-])CC2C)c1 (configuration not stated)	8.5%
COC(=O)c1ccc(Oc2c(C)oc3cc(O)ccc3c2=O)cc1	-19.0%
Cn1c(O)c(N=NCc2ccccc2)c2ccccc21	6.1%
Cc1cccc(-n2ncc3c(N4CC(C)OC(C)C4)ncnc32)c1 (configuration not stated)	19.7%
Cc1ccc(-c2nnc3c4cc5c(cc4n(Cc4ccccc4F)cc2-3)OCCO5)cc1C	6.25µg/mL*
CCOC(=O)c1nn(-c2ccc(F)cc2)cc1O	6.4%
COc1ccc(NC(=O)C2=C(C)NC(=O)NC2c2ccccc2Cl)cc1 (configuration not stated)	-2.3%
CCOC(=O)COc1cccc2c(=O)n(CC(=O)Nc3ccc(C(=O)OCC)cc3)ccc12	2.2%
O=C(Oc1ccc(F)cc1)c1cc2cc([N+](=O)[O-])ccc2oc1=O	40.4%
COCCNC(=O)c1c(N)n(/N=C/c2ccncc2)c2nc3ccccc3nc12	-12.9%
CCOc1ccccc1NC(=O)c1oc2ccccc2c1NC(C)=O	8.2%
O=C(NNC1CC(=O)N(Cc2ccccc2)C1=O)c1ccccc1 (configuration not stated)	0.7%
CCSc1cccc(C(=O)Nc2sc(C)c(C)c2C#N)c1	-5.5%
O=C(Nc1c(C(=O)Nc2ccccc2F)oc2ccccc12)c1ccc(Br)o1	-3.6%
Cc1ccc(-c2nnc3ccc(SCC(N)=O)nn23)cc1	-5.5%
COc1ccc(NC(=O)c2oc3ccccc3c2NC(C)=O)c(OC)c1	8.3%
CCOC(=O)c1[nH]c2ccccc2c1NC(=S)Nc1ccccc1C	3.5%
COc1ccccc1C(=O)N(Cc1ccccc1)c1nnc(C23CC4CC(CC(C4)C2)C3)s1	4.8%
Cc1ccc(-c2cnn3c(N4CCOCC4)cc(C(C)(C)C)nc23)cc1	10.7%
COc1ccc(-n2nc3c(c2NC(=O)Cc2ccc(OC)c(OC)c2)CS(=O)C3)cc1 (configuration not stated)	-1.4%
CCOC(=O)c1nn(-c2ccc(OC)cc2)c(=O)c2c(NC(=O)c3cccc(Cl)c3)scc12	5.8%
Other results
SMILES	Mtb growth
N#Cc1ccc(C(=O)Nc2c(C(N)=O)oc3ccccc23)cc1	-8.8%
Cn1c(=O)c2c(SCC(=O)Nc3ccc(F)cc3)nc(-c3cccs3)nc2n(C)c1=O	17.2%
CC(=O)Cn1c(=O)c2c(nc3n(-c4ccc(C(F)(F)F)cc4)c(C)cn23)n(C)c1=O	-20.1%
Cc1ccc(C(=O)Nc2c(N)nc(SCC(=O)N3CCN(c4ccccc4)CC3)[nH]c2=O)cc1	-3.9%
CCOC(=O)c1nn(-c2cccc(F)c2)c(=O)c2c(NC(=O)c3ccc(S(=O)(=O)N(CC)CC)cc3)scc12	10.5%
CCn1ccc2c(OCC(=O)NCCc3ccc(OC)c(OC)c3)cccc2c1=O	4.4%
Cn1c(=O)[nH]c(=O)c2[nH]c(CN3CCN(c4ccc(F)cc4)CC3)nc21	-0.3%
CC(C)Oc1ccc(C(=O)Nc2nnc(-c3ccc(Br)cc3)s2)cc1	-8.8%
COc1cc2c(=O)c(C(=O)c3ccc(C)c(C)c3)cn(Cc3cccc(F)c3)c2cc1OC	1.5%
CCOC(=O)c1nn(-c2ccc(C)cc2)c(=O)c2c(NC(=O)c3ccc(OC(C)C)cc3)scc12	9.3%
Nn1c(SCC(=O)Nc2ccc([N+](=O)[O-])cc2)nnc(CCC(=O)O)c1=O	-15.9%
CCC(=O)Nc1nc(-c2ccc3c(c2)OCCO3)cs1	78.5%
N#C/C(=C\Nc1ccc(S(=O)(=O)NC(N)=O)cc1)c1nc(-c2ccc(Cl)cc2)cs1	1.8%
Nc1c(C(=O)Nc2ccc(Br)cc2)sc2nc3c(c(-c4ccco4)c12)CCC3	3.8%
Cc1ccc2cc(CCNC(=S)NCCn3ccc4ccccc43)c(=O)[nH]c2c1	1.26µg/mL*

2 entries from above, as comma-separated lines.
SMILES,Mtb growth
CCC(=O)Nc1nc(-c2ccc3c(c2)OCCO3)cs1,78.5%
N#C/C(=C\Nc1ccc(S(=O)(=O)NC(N)=O)cc1)c1nc(-c2ccc(Cl)cc2)cs1,1.8%

The listing continues:
SMILES	Mtb growth
Nc1nc(SCC(=O)Nc2cccc(F)c2)[nH]c(=O)c1NC(=O)c1ccc(F)c(F)c1	-11.5%
COc1cccc(C(c2sc3ncnn3c2O)N2CCC(O)CC2)c1 (configuration not stated)	2.4%
O=C(CCN1C(=O)c2ccccc2S1(=O)=O)Nc1ccccc1	-13.9%
COc1cc(Br)cc(/C=N/Nc2nc(=O)[nH]nc2C)c1O	<0.2µg/mL*
CCSc1nnc(NC(=O)CC)s1	11.1%
O=C(COc1ccc(Cl)cc1)N1CCN(c2ncnc3c2nnn3Cc2ccccc2)CC1	6.75µg/mL*
Cc1cc(N2C(=O)C(O)=C(C(=O)c3cccs3)C2c2ccccc2)no1 (configuration not stated)	-7.6%
Cc1ccnc(SCCn2c(N3CCCCC3)nc3c2c(=O)n(C)c(=O)n3C)n1	0.8%
CN(CCC#N)S(=O)(=O)c1cc2c3c(c1)CCN3C(=O)CC2	-1.2%
Cc1ccc(C)c2[nH]c(=O)c(CCNC(=O)c3ccc(F)c(F)c3)cc12	-3.4%
Cc1nnc(SCCn2c(N3CCCC3)nc3c2c(=O)n(C)c(=O)n3C)s1	4.1%
CC(=O)c1ccc(NC(=O)CSc2nnc3ccc(-c4ccccc4)nn23)cc1	-13.5%
O=C(CSC1=NS(=O)(=O)c2cc(F)ccc2N1)Nc1ccccc1	-16.4%
CCNC(=O)CC1Sc2ccc(C(F)(F)F)cc2NC1=O (configuration not stated)	2.9%
CCCC(=O)Nc1c(C(=O)OCC)oc2ccccc12	15.9%
CCOc1ccc(/C=C/C(=O)N2CCC(C)CC2)cc1OC	6.4%
O=C1CN(C(=O)c2ccccc2Br)C(c2ccccc2)c2cc(F)ccc2N1 (configuration not stated)	3.0%
O=C(CS(=O)(=O)c1ccccc1)Nc1ccc(-c2nc3ccccc3[nH]2)cc1	-1.9%
Oc1c(C(c2ccc(F)cc2)N2CCc3ccccc3C2)sc2ncnn12 (configuration not stated)	1.3%
CCCOC(=O)c1cccc(NC(=O)Cn2nnc3sc4c(c3c2=O)CCC(C(C)(C)C)C4)c1 (configuration not stated)	-4.6%
O=C1/C(=C/c2ccncc2)SC(=S)N1Nc1ccccc1	59.0%
COC(=O)c1ccccc1NC(=O)c1cnc2scc(C)n2c1=O	12.1%
Cc1c(C)n2c(SCC(=O)NC3CCCC3)nnc2[nH]c1=O	-1.6%
Cc1ccc(S(=O)(=O)Nc2ccccc2C(=O)Nc2nc(-c3cc(Cl)ccc3Cl)cs2)cc1	18.6%
Cc1cc(NC2CCCC2)n2ncc(-c3ccccc3)c2n1	9.88µg/mL*
Cc1ccc(S(=O)(=O)c2nnn3c2nc(NCc2ccc(Cl)cc2)c2ccccc23)c(C)c1	-0.8%
Cc1ccc(C(=O)Nc2nnc(CC(C)C)s2)cc1C	0.5%
CCOC(=O)c1nn(-c2ccc(F)cc2)c(=O)c2c(NC(=O)c3ccccc3C)scc12	-3.9%
CCOC(=O)c1c(NC(=O)C(C)Sc2ncnc3ccccc23)sc2c1CCCC2 (configuration not stated)	-8.9%
COc1ccc2c(c1OC)C(=O)OC2Nc1cccc(F)c1 (configuration not stated)	7.2%
COc1cccc(Oc2coc3cc(OCC(N)=O)ccc3c2=O)c1	1.6%
CCOc1ccc(N2CC(NC(=O)c3cccc(OC)c3)CC2=O)cc1 (configuration not stated)	16.8%
COc1cc(OC)c2[nH]cc(C(=O)O)c(=O)c2c1	-10.4%
O=C(Cc1cccc2ccccc12)Nc1nc2c(s1)CCc1ccccc1-2	42.3%
Cc1ccc2cc(CCNC(=O)c3cccc(F)c3)c(=O)[nH]c2c1	-0.6%
O=C(Nc1ccc(Cl)cc1)c1oc2ccccc2c1NC(=O)c1cc2ccccc2oc1=O	9.0%
COc1ccc(NC(=O)Cn2cc(C(=O)c3ccc(Cl)cc3)c(=O)c3cc4c(cc32)OCO4)cc1	-3.8%
COc1ccc(OCCCn2c(C3CC(=O)N(c4ccccc4F)C3)nc3ccccc32)cc1 (configuration not stated)	19.3%
Cc1ccc(C)c(-c2nnc(NC(=O)c3ccc(S(=O)(=O)N4CCc5ccccc54)cc3)o2)c1	12.4µg/mL*
COc1cc(-c2nnc(NC(=O)C3CC3)o2)cc(OC)c1OC	1.2%
Cc1cc(C)c2nc(NNC(=O)c3cc4ccccc4oc3=O)sc2c1	2.16µg/mL*
Cc1[nH]c2ccc(N3CCOCC3)cc2c(=O)c1CN1CCN(C)CC1	-4.5%
O=C1N=C(N2CCCCC2)S/C1=C/c1cccc([N+](=O)[O-])c1	55.8%
COc1cccc(N2CC(NC(=O)Nc3cc(C)ccn3)CC2=O)c1 (configuration not stated)	16.1%

Entries shown so far containing a cyano group:
SMILES	Mtb growth
C=CCOC(=O)C1=C(C)NC(SCC(N)=O)=C(C#N)C1c1cccs1 (configuration not stated)	2.9%
Cc1cc(C)c(C#N)c(SCC(=O)Nc2cccc3cccnc23)n1	-7.1%
CCSc1cccc(C(=O)Nc2sc(C)c(C)c2C#N)c1	-5.5%
N#Cc1ccc(C(=O)Nc2c(C(N)=O)oc3ccccc23)cc1	-8.8%
N#C/C(=C\Nc1ccc(S(=O)(=O)NC(N)=O)cc1)c1nc(-c2ccc(Cl)cc2)cs1	1.8%
CN(CCC#N)S(=O)(=O)c1cc2c3c(c1)CCN3C(=O)CC2	-1.2%

Assay outcomes (PubChem BioAssay)

Some of the compounds tested. The share of hits here may be higher or lower than overall.
